NPYLR7 ag – mosquito NPYLR7 agonism. HEK293T NPYLR7/Galpha15, GCaMP6s calcium fluorescence. activation, % at 10 µM. 270,000 compounds, 0.15% hits. AID 1259423; in the data active means activation above about 40%;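 further: 0% = vehicle and 100% = reference agonist at the receptor; some compounds past the cut are filed as inactive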
NPYLR7 ag max-min – also measured in NPYLR7 ag; calls as there; activation, %; measured here: Max-Min RFU normalised activation; some inactives read as strong as hits;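 span of the calcium signal over five minutes; 0% = vehicle and 100% = native peptide agonist; compound fluorescence can raise it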
Numbers without * were called inactive; & = joins results of further samples.

Sample of the layout, 2 compounds:
#1 COc1ccc(Cl)cc1NS(=O)(=O)N1CCCCCC1
#2 CSc1nc(C(=O)NC2CCCN(c3nc4ccccc4s3)C2)cs1 (stereo not drawn)

screen / no. | 1 | 2
NPYLR7 ag max-min | -1 | -21
NPYLR7 ag | 0 | -16

The list itself (from the top)
#1 COc1ccc(Cl)cc1NS(=O)(=O)N1CCCCCC1
#2 CSc1nc(C(=O)NC2CCCN(c3nc4ccccc4s3)C2)cs1 (stereo not drawn)
#3 COc1cc(C(=O)Nc2oc3ccccc3c(=O)c2-c2ccc(C)cc2)cc(OC)c1OC
#4 O=C(c1ccccc1Cl)N1CCN(C2c3ccccc3CCc3ccccc32)CC1
#5 CCc1nc(Nc2ccccc2F)c2ccc(Cl)cc2n1
#6 COc1cc(-c2nc3ccc(Br)cn3c2NC2CCCCC2)ccc1OC(=O)c1cccc(Br)c1

screen / no. | 1 | 2 | 3 | 4 | 5 | 6
NPYLR7 ag max-min | -1 | -21 | -5 | -6 | 13 | 16
NPYLR7 ag | 0 | -16 | -3 | 12 | 5 | 14

#7 CN(C)N1C(=O)CC(N2CCCCCC2)C1=O (stereo not drawn)
#8 CCCc1cc2c(=O)c(-c3cc4ccccc4o3)coc2cc1OC(C)C(=O)OCC (stereo not drawn)
#9 CNc1cnc(-c2cccc(C(=O)N3CCOCC3)c2)cn1
#10 CC(c1ccccc1Cl)N(C(=O)c1n[nH]c(=O)c2ccccc12)C1CC1 (stereo not drawn)
#11 O=S(=O)(NC1CCCCC1Sc1ncccn1)c1ccc(Cl)cc1 (stereo not drawn)
#12 CCN(CC)C1=NC=CC(c2ccccc2)=CC1SC (stereo not drawn)

screen / no. | 7 | 8 | 9 | 10 | 11 | 12
NPYLR7 ag max-min | 5 | -10 | 0 | 4 | -7 | 8
NPYLR7 ag | 8 | -3 | 0 | 7 | -5 | 13

#13 Cc1ccc(S(=O)(=O)Nc2ccc(-c3ccc4nnc(C)n4n3)cc2)s1
#14 CN(CCc1ccccn1)C(=O)CC1C(=O)NCCN1Cc1cccc(F)c1 (stereo not drawn)
#15 CC(=O)c1ccc(C(=O)Nc2nnc(-c3cc(C)n(C)n3)o2)cc1
#16 CSCC(C)C(=O)Nc1ncc(Cl)s1 (stereo not drawn)
#17 OC(C#CCN1CCCC1)(c1ccccc1)C1CCCC1 (stereo not drawn)
#18 Cc1nc2sc(C)c(C)n2c(=O)c1NC(=O)CSCc1ccccc1

screen / no. | 13 | 14 | 15 | 16 | 17 | 18
NPYLR7 ag max-min | -18 | -3 | -18 | 5 | 4 | 2
NPYLR7 ag | -19 | -1 | -10 | 8 | 7 | 6

#19 COC(=O)c1occc1CN1CC(C(N)=O)CCC1C (stereo not drawn)
#20 CCC(C)N(Cc1sccc1C)C(=O)CC1CCOCC1 (stereo not drawn)
#21 CCCCN(CC(=O)Nc1cc(-c2ccccc2)nn1-c1ccc(C)cc1C)C(=O)CC(C)(C)C
#22 O=C(CCN(Cc1ccco1)c1nc(Cc2ccccc2)ns1)NC(Cc1ccccc1)c1ccccc1 (stereo not drawn)
#23 CC(O)c1ccc(NC(=O)c2cnn3c2NC(c2ccc(F)cc2)CC3C(F)(F)F)cc1 (stereo not drawn)
#24 COc1ccc2oc(=Nc3cccc(C(F)(F)F)c3)c(C(N)=O)cc2c1

screen / no. | 19 | 20 | 21 | 22 | 23 | 24
NPYLR7 ag max-min | 7 | -9 | 8 | -3 | -7 | -10
NPYLR7 ag | 9 | -5 | 17 | -6 | -3 | -6

#25 CCN(CC)C(=O)C(NC(=O)c1ccc(F)cc1)C1CCN(C(=O)c2ccccc2F)CC1 (stereo not drawn)
#26 O=S(=O)(NCC1CCCO1)c1cccc2nsnc12 (stereo not drawn)
#27 Cc1cc(C(=O)COC(=O)C23CC4CC(CC(Br)(C4)C2)C3)c(C)n1C
#28 CC(=O)O[C@@H](C)C(=O)Nc1ccc(-c2cccc(-c3ccc4c(c3)OCCO4)n2)cc1
#29 C#CCOCC(O)CN(Cc1c(-c2ccccc2)nn(C)c1Oc1ccccc1OC)CC(C)C (stereo not drawn)
#30 Cc1cc(-c2nnc(NC(=O)CCS(=O)(=O)c3ccc(F)cc3)o2)n(C)n1

screen / no. | 25 | 26 | 27 | 28 | 29 | 30
NPYLR7 ag max-min | -4 | -3 | 7 | 2 | 2 | 0
NPYLR7 ag | -4 | 0 | 7 | 8 | 0 | -1

#31 COc1ccc(-c2nc(CC(=O)N(C)Cc3nc4ccccc4c(=O)[nH]3)cs2)cc1OC
#32 O=C1CC(c2cccc3[nH]ccc23)c2c(nc3ccccn23)CN1 (stereo not drawn)
#33 O=C(Cc1c[nH]c2ccccc12)NN1C(=O)CC(C2CCCCC2)C1=O (stereo not drawn)
#34 COc1ccc(CCN2CCC(CN(C)C(=O)c3ccc(C(C)=O)s3)CC2)cc1
#35 O=C(NCc1ccco1)c1cc2c(s1)CSC2
#36 Cc1oc(-c2cccs2)nc1CN1CCOc2ccc(Cl)cc2C1

screen / no. | 31 | 32 | 33 | 34 | 35 | 36
NPYLR7 ag max-min | -10 | -11 | -14 | 4 | 6 | 8&-12
NPYLR7 ag | -7 | -10 | -6 | 4 | 5 | 9&-7

#37 CCOC(=O)c1c(NC(=O)C(C)(C)C)sc(C(=O)Nc2cccc(OC)c2)c1C
#38 N#Cc1ccc(C(=O)N(CCN2CCOCC2)c2nc3ccc(Br)cc3s2)cc1
#39 CC(C)N1CCc2c(sc(NC(=O)CN3C(=O)CCC3=O)c2-c2nc3ccccc3s2)C1
#40 CC(C)OCCCNC(=O)CCCc1nnc2c(=O)n(-c3ccc(Cl)cc3)ccn12
#41 COc1ccc(C(=O)NN2C(=O)CSC2=S)cc1OC
#42 CCOC(=O)C1(C)CCCCCN1C(=O)c1ccc(C(F)(F)F)nc1C (stereo not drawn)

screen / no. | 37 | 38 | 39 | 40 | 41 | 42
NPYLR7 ag max-min | -10 | 8 | 32 | 1 | -11 | -5
NPYLR7 ag | -5 | 10 | 33 | 7 | -5 | -1

4 compounds out of the list, arranged by molar mass, falling.
#39 CC(C)N1CCc2c(sc(NC(=O)CN3C(=O)CCC3=O)c2-c2nc3ccccc3s2)C1
#40 CC(C)OCCCNC(=O)CCCc1nnc2c(=O)n(-c3ccc(Cl)cc3)ccn12
#42 CCOC(=O)C1(C)CCCCCN1C(=O)c1ccc(C(F)(F)F)nc1C (stereo not drawn)
#41 COc1ccc(C(=O)NN2C(=O)CSC2=S)cc1OC

screen / no. | 39 | 40 | 42 | 41
NPYLR7 ag max-min | 32 | 1 | -5 | -11
NPYLR7 ag | 33 | 7 | -1 | -5

(further entries)
#43 CN(CC(=O)NC1CCN(C2CCCCCC2)C1)C(=O)c1ccsc1 (stereo not drawn)
#44 OC(COCc1ccccc1)CN(Cc1c(-c2ccccc2)noc1N1CCCCC1)CC1CC1 (stereo not drawn)
#45 O=C(Nc1nnc(SCc2cccc([N+](=O)[O-])c2)s1)c1ccccc1F
#46 Cc1cccn2c(=O)c3cc(C#N)c(=O)n(-c4nccs4)c3nc12
#47 CCCCc1nnc(N)s1
#48 CCCSc1nnc2c(n1)OC=Nc1ccc(Br)cc1-2

screen / no. | 43 | 44 | 45 | 46 | 47 | 48
NPYLR7 ag max-min | 2 | 8 | 21 | 0 | -2 | -1
NPYLR7 ag | 4 | 6 | 20 | 4 | -3 | 4

#49 COc1ccc(S(=O)(=O)Nc2ccccc2F)c2ccccc12
#50 CCCCN(CCC(=O)NCCc1ccc(Cl)cc1Cl)c1nc(Cc2ccc(F)cc2)ns1
#51 COc1cc(OC)c(OC)cc1C=CC(=O)c1ccc(I)cc1
#52 O=C(Nc1cccnc1N1CCN(C(=O)NCc2ccc(Cl)cc2)CC1)c1ccc2c(c1)OCO2
#53 CNC(=O)CN(C)c1nc(-c2ccccc2)c2ccccc2n1
#54 CN1CCC(Cn2nc(CC3CCNCC3)n(-c3ccccc3)c2=O)C1 (stereo not drawn)

screen / no. | 49 | 50 | 51 | 52 | 53 | 54
NPYLR7 ag max-min | 0 | -1 | 19 | 29 | -1 | -2
NPYLR7 ag | 2 | -2 | 21 | 29 | 0 | -1

#55 CCOC(=O)N1CCN(C(=O)CSc2ccc(NC(C)=O)nn2)CC1
#56 c1ccc(-c2cnn3cc(CN4CC(n5cccn5)C4)cnc23)cc1
#57 CCn1nc(C)c(NC(=O)CNC(c2nccn2C)C(C)C)c1C (stereo not drawn)
#58 COc1ccc(N2CCCN(C(=O)C3COCCO3)CC2)cc1 (stereo not drawn)
#59 CN(C)c1ccccc1NC(=O)N1CCN(S(=O)(=O)N(C)C2CCCCC2)CC1
#60 COc1ccccc1C1=NOC(CN(Cc2ccccc2Cl)C(=O)NC(C)(C)C)C1 (stereo not drawn)

screen / no. | 55 | 56 | 57 | 58 | 59 | 60
NPYLR7 ag max-min | -2 | 9 | 3 | -8 | 3 | 23
NPYLR7 ag | -1 | 23 | 5 | -6 | 7 | 11

#61 COc1ccc(C(=O)Nc2ccc(-n3nc(OCc4ccc(F)cc4)nc3-c3ccco3)cc2)cc1
#62 Cc1nc(=O)[nH]c(C)c1CCC(=O)N1CCCC2(CN(C)C(=O)O2)C1 (stereo not drawn)
#63 O=C(CC1Cn2ncc(-c3ccccc3)c2NC1=O)NC1CCCCCC1 (stereo not drawn)
#64 COCCCN(Cc1csc(COc2c(OC)cccc2OC)n1)C(=O)Cc1ccccc1
#65 Cc1ccc(C(c2ccccc2)N2CCN(C(=O)Nc3cc(C)ccc3F)CC2)cc1 (stereo not drawn)
#66 COc1cccc(C(=O)NCCNc2cc(N3CCOCC3)nc(C)n2)c1OC

screen / no. | 61 | 62 | 63 | 64 | 65 | 66
NPYLR7 ag max-min | 12 | 1 | -15 | 5 | 17 | 3
NPYLR7 ag | 1 | 1 | -16 | -2 | 32 | 5

#67 COc1cccc(C(CNC(=O)c2sc3nc(-c4ccco4)nc(C)c3c2C)N2CCCC2)c1 (stereo not drawn)
#68 COc1ccc(OCCN2CCC(C(=O)NC(c3ccc(F)cc3)c3ccc4ccccc4n3)CC2)cc1 (stereo not drawn)
#69 CC(C)N1CCCC(C)(C(=O)Nc2ccc3cn[nH]c3c2)C1 (stereo not drawn)
#70 CC(c1cccnc1)N(C)C(=O)c1ccc(OCC(=O)N2CCCCC2)cc1 (stereo not drawn)
#71 CCn1nc(C(=O)NCc2ccc(OC)cc2)c2c1CCN(C(=O)c1ccc3c(c1)OCO3)C2
#72 O=C(NCc1ccc2c(c1)OCO2)c1ccc(CSc2nnc(-c3ccco3)n2-c2ccccc2F)cc1

screen / no. | 67 | 68 | 69 | 70 | 71 | 72
NPYLR7 ag max-min | -4 | 0 | -2 | -8 | 3 | 13
NPYLR7 ag | -4 | 5 | -1 | 3 | 18 | 17

Reprinted, compounds 69 to 72
#69 CC(C)N1CCCC(C)(C(=O)Nc2ccc3cn[nH]c3c2)C1 (stereo not drawn)
#70 CC(c1cccnc1)N(C)C(=O)c1ccc(OCC(=O)N2CCCCC2)cc1 (stereo not drawn)
#71 CCn1nc(C(=O)NCc2ccc(OC)cc2)c2c1CCN(C(=O)c1ccc3c(c1)OCO3)C2
#72 O=C(NCc1ccc2c(c1)OCO2)c1ccc(CSc2nnc(-c3ccco3)n2-c2ccccc2F)cc1

screen / no. | 69 | 70 | 71 | 72
NPYLR7 ag max-min | -2 | -8 | 3 | 13
NPYLR7 ag | -1 | 3 | 18 | 17

(further entries)
#73 CCCCNC(=O)Cn1cc([N+](=O)[O-])ccc1=O
#74 CCCN(C)c1ccc(C(=O)N2CCC(N3CCOCC3)CC2)cn1
#75 O=C(c1ccccc1C(=O)N1CCC(n2c(=O)[nH]c3ccccc32)CC1)N1CCC(n2c(=O)[nH]c3ccccc32)CC1
#76 COc1cccc2sc(N(Cc3cccnc3)C(=O)CCSc3ccccc3)nc12
#77 O=C(CCCc1ccccc1)Nc1ccnn1C1CCN(C(=O)c2ccsc2)CC1
#78 COc1cc2c(cc1OC)CN(CC(O)COC1CCCC1)CC2 (stereo not drawn)

screen / no. | 73 | 74 | 75 | 76 | 77 | 78
NPYLR7 ag max-min | -3 | 4 | -17 | -11 | 3 | -5
NPYLR7 ag | 0 | 6 | -9 | -12 | 13 | -5

#79 Cc1cc(C)cc(Nc2nc(NCCO)nc3c2cnn3-c2ccccc2)c1
#80 CN1CCN(C(CNC(=O)c2ccc(-c3ccccc3)cc2)c2ccc3c(c2)CCCN3C)CC1 (stereo not drawn)
#81 COc1ccc(-c2nc3ccc(C)cn3c2NC(=O)c2ccc(Cl)c(Cl)c2)cc1OC
#82 Cc1ccc(C(=O)Nc2cccc(-c3cccc(-c4ccc5c(c4)NC(=O)CO5)n3)c2)cc1C
#83 CCc1nc(C)c(C(=O)NCc2csc(-c3ncccn3)n2)s1
#84 CC(C)Oc1ccc(OCCSc2nc3ccccc3[nH]2)cc1

screen / no. | 79 | 80 | 81 | 82 | 83 | 84
NPYLR7 ag max-min | -1 | 6 | 10 | 4 | 9 | -20
NPYLR7 ag | 2 | 9 | 0 | 2 | 19 | -15

#85 CCOC(=O)C1=C(O)/C(=C\c2cccc(F)c2O)SC1=Nc1cccc(C(F)(F)F)c1
#86 CCN(CC)C(=O)Cn1nc(-c2cccc(OC)c2)c2sc(C)nc2c1=O
#87 Cc1cnn(Cc2cccc(Cl)c2)c1NC(=O)C1=NNC(=O)CC1
#88 COc1cccc(C2NC(=O)N(C)C3=C2C(=O)N(CC(=O)N2CCN(C4CCCC4)CC2)C3)c1OC (stereo not drawn)

screen / no. | 85 | 86 | 87 | 88
NPYLR7 ag max-min | 0 | 4 | -5 | 6
NPYLR7 ag | -9 | 6 | 7 | -1

Bioassay records from PubChem BioAssay.

A portion of the library. The share of hits here may be higher or lower than overall.
